From PubChem BioAssay
BasE inh = BasE siderophore biosynthesis inhibition; purified BasE, fluorescence polarization binding displacement; inhibition, % (no concentration beside the values); 84,000 compounds, 0.1% hits;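 active means both replicates above 25% with normal brightness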;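 further: 0% = negative plate control signal and 100% = positive plate control signal; stock transfer was 100 nL into about 30 µL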
LANA-nucl inh = inhibitors of KSHV LANA binding to nucleosomes; z-score (test concentration not listed); 51,000 compounds, 0.3% hits; FITC-LANA1-23 / chicken nucleosome fluorescence polarization; active compounds read low; AID 720717;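 active means both repeat wells score below -2 in polarization z-score versus plate sample wells, excluding overly bright wells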;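 further: 100 nL library stock added to about 30 µL; numbers are from one replicate; some results filed as inactive read as strong as hits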
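System – purified chicken nucleosomes with FITC-labelled LANA N-terminal peptide (1-23) · Amount – 240 nM purified chicken nucleosomes (480 nM peptide binding sites), final · Also added – 50 nM FITC-LANA1-23 probe · Medium – TEN-BT buffer, pH 7.5 · Incubation – compound with peptide–nucleosome mix 10–45 min at room temperature · Detection – fluorescence polarization, ex 480 nm, em 535 nm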
* hit, by the source's call; nt = no result given. The list is partial. The share of hits here may be higher or lower than overall.

Every second line gives: BasE inh, LANA-nucl inh
O=C1c2ccccc2C(=O)N1CSc1ncnc2c1cnn2-c1ccccc1
    1.4, nt
N#Cc1sccc1CS(=O)(=O)c1ccc(Cl)cc1
    2.3, -0.2
O=C(CSc1nnc(CNc2ccc(F)cc2)o1)N1CCOCC1
    -1.8, 0.12
Cc1ccc(SCc2cc(=O)[nH]c(/N=C(/N)Nc3ccccc3)n2)cc1
    1.6, nt
Cc1c(Cl)ccc2sc(N(Cc3ccccn3)C(=O)c3ccco3)nc12
    -3.5, 2.5
CCOC(=O)N1CCN(C(=O)CN(c2ccc(C)cc2)S(=O)(=O)c2cc(C)ccc2OC)CC1
    -0.5, 2.7
c1ccc(-c2cc3ncnc(N4CCSCC4)c3s2)cc1
    2.6, -1.5
O=C(C1CC1)N1CCN=C1SCc1cccc(C(F)(F)F)c1
    1.0, -1
CC(=O)Oc1ccc(S(=O)(=O)c2ccc(OC(C)=O)cc2)cc1
    19, nt
CCOC(=O)C1=C(O)CSC1=NC(=O)c1ccc(OC)cc1
    -8.8, 2.5
CCOC(=O)c1cnn(-c2ncnc3sc(-c4ccccc4)cc23)c1N
    1.9, nt
NC(=O)c1cc(S(=O)(=O)NCCN2CCc3ccccc3C2)cs1
    0.2, nt
CC1CCN(c2cc(N3CCN(C(=O)c4ccco4)CC3)c3c4c(onc24)-c2ccccc2C3=O)CC1
    -14, -1.2
CC1=NN(C(=O)CCc2ccccc2)C(O)(c2ccccc2)C1 (configuration not stated)
    0.9, nt
Cc1nc2c(C)cccc2c2c1CCN2c1ccccc1F
    -3.1, 0.44
NC(=O)C1CCN(C(=O)CCSCc2ccccc2)CC1
    1.3, -1.5
CCCC12CN(C(=O)CC(C)C)CC(CCC)(CN(C(=O)CC(C)C)C1)C2=O
    0.1, -0.82
CC1(C)CCCC2(C)C1CCC(C)(O)C2CCO (configuration not stated)
    0.2, 0.2
CCn1c(CSc2nc(C)c(C)n2C2CCCC2)nc2cc(S(=O)(=O)N(C)C)ccc21
    -0.3, nt
O=S1(=O)CCC(NCc2cc(Cl)c3c(c2)OCCCO3)C1 (configuration not stated)
    0.3, nt

5 structures from above, arranged by number of heavy atoms, descending:
Every second line gives: BasE inh, LANA-nucl inh
CCCC12CN(C(=O)CC(C)C)CC(CCC)(CN(C(=O)CC(C)C)C1)C2=O
    0.1, -0.82
Cc1c(Cl)ccc2sc(N(Cc3ccccn3)C(=O)c3ccco3)nc12
    -3.5, 2.5
CC1=NN(C(=O)CCc2ccccc2)C(O)(c2ccccc2)C1 (configuration not stated)
    0.9, nt
Cc1nc2c(C)cccc2c2c1CCN2c1ccccc1F
    -3.1, 0.44
NC(=O)C1CCN(C(=O)CCSCc2ccccc2)CC1
    1.3, -1.5

(cont.)
Every second line gives: BasE inh, LANA-nucl inh
CC(CC1CC(C)(C)OC1=O)C(=O)Nc1nncs1 (configuration not stated)
    1.8, nt
CNc1ccccc1C(=O)Nc1cccc(OC)c1
    -1.1, nt
COCCn1c(SCC(=O)N2CCc3ccccc32)nc2c(c1=O)SC(C)C2 (configuration not stated)
    -0.6, -0.16
Cc1ccnc(NC(=O)Cn2ncc3c2-c2ccccc2OC3)c1
    -3.2, -1.6
c1ccc2c(c1)OCC(CNCC1COc3ccccc3O1)O2 (configuration not stated)
    0.4, nt
O=C(O)c1cnn2c(C(F)F)cc(C3CC3)nc12
    2.4, 0.62
c1ccc2c3c([nH]c2c1)CCCC3
    1.0, -0.23
NC(=O)c1cc[n+](CC2=C(C(=O)O)N3C(=O)C(NC(=O)C(c4ccccc4)S(=O)(=O)[O-])C3SC2)cc1 (configuration not stated)
    nt, 0.057
N#CCc1ccc(NC(=O)CCc2nc3cccnc3n2Cc2cccs2)cc1
    -3.9, 0.16
Cc1ccc(C(=O)COC(=O)COc2ccccc2O)cc1C
    3.3, nt
OCCNc1nc2ccccc2n1CN1CCN(c2ccccc2F)CC1
    0.9, nt
Cc1ccc(OCC(=O)Nc2ccccc2C(=O)N(C)C)cc1
    -0.3, -1.3
NC(=O)C1CCN(c2nc(-c3ccccc3)nc3ccccc23)CC1
    -2.8, nt
O=C(Nc1cc(Cl)cc(Cl)c1)C1=COCCO1
    -0.2, -1.4
Cc1ccc(CSc2ncc(C(F)(F)F)cc2Cl)cc1
    2.8, nt
CN(CC(=O)Nc1ccc(F)cc1)C(=O)COc1ncnc2c1cnn2-c1ccccc1
    0.8, nt
CC(C)(C)C(=O)/C(C#N)=C/c1ccc(N2CCOCC2)cc1
    2.3, nt
CC(SC(=S)N1CCCCCC1)C(=O)O (configuration not stated)
    -1.3, -1
CC(C)C1C(=O)Nc2ccc(S(=O)(=O)NC3CCCC3)cc21 (configuration not stated)
    -0.6, nt
Cc1cc(Cl)nc2ccccc12
    0.9, nt

Ordered by the number under LANA-nucl inh (lowest first): some entries from above
SMILES | LANA-nucl inh
O=C(Nc1cc(Cl)cc(Cl)c1)C1=COCCO1 | -1.4
c1ccc2c3c([nH]c2c1)CCCC3 | -0.23
N#CCc1ccc(NC(=O)CCc2nc3cccnc3n2Cc2cccs2)cc1 | 0.16

Remaining list, next part
Every second line gives: BasE inh, LANA-nucl inh
Cc1nnsc1C(=O)Nc1ccccn1
    -2.1, -0.37
C=C(C)CN=c1scc(-c2cc3ccccc3o2)n1/N=C/c1cccc(OC)c1O
    -1.4, nt
CCOC(=O)C1=C(C)N=C2SCCC(=O)N2C1c1ccccc1 (configuration not stated)
    9.2, -0.34
CCc1nc(SCC(=O)N2CCCc3ccccc32)c2c(=O)n(C)c(=O)n(C)c2n1
    0.5, -0.94
CCOC(=O)c1ccc(N2C(=O)CC(NCCc3ccc(S(N)(=O)=O)cc3)C2=O)cc1 (configuration not stated)
    -0.5, -0.072
CC(=O)c1cc2c(cc1O)OC(C)(C)C=C2
    -0.9, 0.63
CCCCNC(=O)Oc1ccc(C2=NCCS2)cc1
    -2.1, 0.94
CCOC(=O)N/N=C1\CCS(=O)(=O)c2ccc(Cl)cc21
    -4.5, 1.6
CCNc1nc2c(c(=O)n(Cc3ccccc3)c(=O)n2C)n1Cc1ccccc1
    2.4, -0.0055
Cc1ccc(N2C(=O)C(CC(=O)Nc3cccc(F)c3)N(C3CC3)C2=O)cc1 (configuration not stated)
    0.5, -0.5
C=CCSc1nc2ccccc2c(=O)n1CC=C
    4.5, -0.033
O=C(O)C1C2CCC(C2)C1C(=O)Nc1ccc(Cc2ccncc2)cc1 (configuration not stated)
    4.2, -0.31
COc1cccc(OCCSc2nc(-c3ccccc3)cc(=O)[nH]2)c1
    1.0, nt
CNC(=O)c1ccc2c(c1)CCCN2S(C)(=O)=O
    -1.9, -0.23
Cc1cc(C(=O)CN(Cc2ccco2)C2CCS(=O)(=O)C2)c(C)n1Cc1cccs1 (configuration not stated)
    -0.1, nt
Cc1ccc(OCCSc2nc3ccccc3n2CCC(=O)O)cc1
    -2.9, 0.35
C#CC(C)(C)NC(=O)c1cccnc1Oc1ccccc1
    0.8, 0.024
CCCCNc1nc(-c2ccccc2)no1
    1.4, -0.26
Clc1nc2ccc(Br)cc2s1
    1.7, 0.39
Cc1nc2ccccc2nc1CSc1nnc2ccccn12
    -5.7, nt
CN(Cc1ccccc1)CC(O)COCC1=CCC2CC1C2(C)C (configuration not stated)
    -0.2, nt
O=C(CSc1nc2ccccc2c(=O)[nH]1)c1ccc(S(=O)(=O)N2CCCCC2)cc1
    1.9, nt
O=c1[nH]cnc2scc(-c3ccsc3)c12
    -4.2, 2.1
CC1=Nc2ccccc2N=C(C)C1
    0.4, 0.81
CC(C)CCNc1ncnc2c1sc1nc(-c3ccco3)c3c(c12)CCCC3
    -0.8, 0.24
NC(=S)N/N=C/c1cn[nH]c1-c1ccccc1
    1.5, 0.4
CC1CCCCN1C(=O)COC(=O)c1ccccc1NCc1ccco1 (configuration not stated)
    0.4, nt
Oc1[nH]c2ccccc2c1C=NCCC1=CCCCC1
    1.3, 0.72
CC(C)CNc1cnnc2c(Cl)cccc12
    0.1, 1.7
CCN=C1S/C(=C\c2cn(CC(=O)NCc3ccco3)c3ccccc23)C(=O)N1CC
    1.0, 0.005
Cc1nnc(SCC(=O)Nc2cc(-c3ccc(Cl)cc3)nn2C)n1C
    -1.4, nt
CC1NC(=S)N(c2ccc(C(C)C)cc2)C1=O (configuration not stated)
    -0.6, nt
CCN(CC)S(=O)(=O)c1ccc(S(=O)(=O)NCc2ccc3c(c2)OCO3)cc1
    3.1, -0.23
COc1ccc(CNC(=O)c2cccc(NC(C)=O)c2)cc1OC
    -1.9, nt
CCOC(=O)c1c[nH]c2cc(Cl)cc(Cl)c2c1=O
    nt, -1.2
COc1ccc(OC)c(NC(=O)CSc2ncnc3c2oc2ccccc23)c1
    -0.4, 0.014
O=C(CCn1c(=O)oc2ccccc21)n1c(=O)oc2ccccc21
    -0.4, 0.0075
NC(=S)NN=C1Cc2ccccc2C1
    2.4, 0.53
CCN(CC)CC(=O)N1N=C(c2ccc(OC)cc2)CC1c1cccc(OC)c1OC (configuration not stated)
    -5.8, -0.044
Cc1ccc(NC(=O)N2CCN(C3c4ccccc4-c4ccccc43)CC2)cc1Cl
    nt, -1.2
O=c1cc(NCCNc2cc(=O)oc3ccccc23)c2ccccc2o1
    -3.9, 2.1
CNC(=S)NNc1nc(N2CCCC2)nc(N2CCCC2)n1
    -1.9, -0.78
COc1ccc2c(CC(=O)OCC(=O)Nc3ccccc3)coc2c1
    0.5, nt
COc1cc(N)c(Cl)cc1C(=O)OCC(=O)c1ccc2c(c1)OCCO2
    -31, nt
COC(=O)C1(C(F)(F)F)N=C(C)OC(N2CCOCC2)=N1 (configuration not stated)
    0.1, -0.062
Cc1c(C#N)c(NC(=O)CSc2cc(C)c3ccccc3n2)n(Cc2ccco2)c1C
    0.9, nt
CCCN(C(=O)c1ccccc1)c1c(N)n(Cc2ccccc2)c(=O)[nH]c1=O
    0.6, nt
COC(=O)c1cc2nc(-c3ccccc3)cc(C(F)(F)F)n2n1
    1.2, -0.48
CNc1nc(N2CCCC2)ncc1F
    -0.9, 1.7
CN1CCCN(Cc2coc3ccccc3c2=O)CC1
    2.0, -0.3
CC(C(=O)N1CCCCC1)N1Cc2ccccc2C1=O (configuration not stated)
    -1.7, 0.32
CN1CCN(C(=O)CCN2C(=O)/C(=C/c3ccccc3)SC2=S)CC1
    1.2, 0.33
Cc1ccc(C)c(C(=O)Cn2cc(Br)ccc2=O)c1
    -0.8, nt
CN1c2ccccc2N(C)C1/C=C/c1ccccc1
    -2.2, -0.3
N#CCc1[nH]nc(N)c1C#N
    nt, -1.5
Cc1ccc(/C=C/C(=O)Nc2cccc(NC(=O)/C=C/c3ccc(C)o3)n2)o1
    1.8, 0.86
Cc1ccc2nc(NC(=O)CCc3nc4cc(S(=O)(=O)N5CCCCC5)ccc4n3C)sc2c1
    -0.2, nt
CC(=O)N1CCC2(CC1)Oc1ccccc1C1CC(c3ccccc3)=NN12 (configuration not stated)
    1.1, nt
CC1CCN(CN2C(=O)N(CN3C(=O)N(CN4CCC(C)CC4)C(=O)C3(C)C)C(C)(C)C2=O)CC1
    0.6, -0.46
Cn1nc(-c2ccc(N3CCOCC3)c(NS(C)(=O)=O)c2)c2ccccc2c1=O
    -1.4, 0.49

Next results follow:
Every second line gives: BasE inh, LANA-nucl inh
N#C/C(=C/c1ccc(-c2ccc(Cl)c(C(=O)O)c2)o1)C(=O)NC1CCCC1
    3.5, -0.012
CSc1nc2ccc(NC(=O)CCC(=O)c3cccs3)cc2s1
    -0.2, nt
Cc1ccc(-c2nc(-c3ccc(C)cc3)[nH]c(=O)n2)cc1
    2.8, 0.035
CN(C)S(=O)(=O)c1cccc(CSc2cccc[n+]2[O-])c1
    1.6, nt
CC(C)c1ccc(NC2=NCC(=O)N2Cc2ccccc2)cc1
    0.4, -0.92
CCOC(=O)c1c(C)nsc1NN=C(C#N)C(=O)C(C)(C)C
    2.3, 0.2
COc1ccc(C2NC(C(=O)O)C3C(=O)N(c4ccc(F)cc4)C(=O)C23)c(OC)c1OC (configuration not stated)
    1.3, -0.84
Nc1cc(N)cc(C(F)(F)C(F)(F)C(F)(F)F)c1
    1.9, 0.074
CCCSc1nc2ccccc2n1CN(C)Cc1ccc2c(c1)OCCO2
    -1.2, nt
CCOC(=O)c1csc2c1CCC/C2=N/OC(C)=O
    0.6, 0.035
Cc1nc2ccccc2n1CC(=O)OCC(=O)NC1CC1
    -2.3, nt
O=C(OCc1c(F)cccc1Cl)c1cnc2sccn2c1=O
    0.2, nt
O=C1C2CNC3(C(=O)Nc4ccccc43)C2C(=O)N1C1CCCCC1 (configuration not stated)
    1.4, 0.27
O=C1Cc2cc(C(=O)CSc3nnc4c(n3)CCCC4)ccc2N1
    -0.1, 0.34
CCO/C=C(\C#N)C(=O)Nc1ccc(F)c(Cl)c1
    5.0, -0.016
O=c1c2cc(NC(=S)N3CCCCCC3)ccc2nc2n1CCCCC2
    -1.1, -0.73
CSc1ccc(/C=C(\C#N)C(=O)NC2CCCCC2)cc1
    -2.2, 1.3
CCOC(=O)c1c(NC(C)=O)sc2c(NC(C)=O)cccc12
    -0.2, -0.11
